# KCNQ2 pot: KCNQ2 (rat) channel potentiation; B-score at 10 µM; 310,000 tested, 0.54% active; CHO-K1 KCNQ2, FluxOR thallium flux fluorescence; active compounds read high; O88943;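 active = fluorescence ratio B-score at least 3 SD of library B-scores, with initial fluorescence B-score within 3 SD, cut at about 5.3 in these data; same plate scores as AID 2156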;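 note: B-score of peak minus minimum over baseline fluorescence ratio after K+ and Tl+ stimulus; positive B-score means potentiation of KCNQ2 with more thallium influx and brighter signal; only the inactives scoring about 0 or higher are listed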
# Target sequence (O88943 whole entry, looked up): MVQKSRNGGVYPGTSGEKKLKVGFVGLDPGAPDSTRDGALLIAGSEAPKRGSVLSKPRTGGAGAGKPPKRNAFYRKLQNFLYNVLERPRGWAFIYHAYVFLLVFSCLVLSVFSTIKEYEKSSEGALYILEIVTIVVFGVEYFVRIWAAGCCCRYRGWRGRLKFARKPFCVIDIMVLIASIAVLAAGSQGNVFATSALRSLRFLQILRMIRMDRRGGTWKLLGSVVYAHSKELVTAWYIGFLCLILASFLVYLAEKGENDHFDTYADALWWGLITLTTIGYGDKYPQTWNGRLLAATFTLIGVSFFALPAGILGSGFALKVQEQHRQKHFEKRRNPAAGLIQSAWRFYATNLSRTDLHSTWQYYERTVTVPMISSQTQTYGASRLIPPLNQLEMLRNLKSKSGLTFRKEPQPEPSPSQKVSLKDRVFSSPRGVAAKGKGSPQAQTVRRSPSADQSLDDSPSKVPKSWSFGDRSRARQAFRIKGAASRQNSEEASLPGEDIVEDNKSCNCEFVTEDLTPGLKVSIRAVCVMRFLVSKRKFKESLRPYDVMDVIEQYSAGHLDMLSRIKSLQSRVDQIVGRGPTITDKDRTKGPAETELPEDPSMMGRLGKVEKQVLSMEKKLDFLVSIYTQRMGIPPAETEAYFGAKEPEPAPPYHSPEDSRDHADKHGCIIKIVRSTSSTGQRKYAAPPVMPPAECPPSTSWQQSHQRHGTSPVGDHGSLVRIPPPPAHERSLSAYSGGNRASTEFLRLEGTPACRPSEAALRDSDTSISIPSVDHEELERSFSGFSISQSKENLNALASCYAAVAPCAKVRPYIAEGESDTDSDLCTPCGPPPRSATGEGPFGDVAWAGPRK
# KCNQ2 pot baseline: second read-out of KCNQ2 pot, no call of its own (marks repeat the call); B-score; compound at 10 µM; measured here: initial fluorescence intensity artifact check;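 brightness before thallium and not channel activity; 0 = typical well and far values either way flag optical interference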
# * marks the source's active call; other numbers are inactive results.
# Order of results – KCNQ2 pot, KCNQ2 pot baseline
O=C(Nc1ccc(N2CCOCC2)cc1)C1CCCCC1
    0.88, 0.59
Cc1ccc(-n2nnnc2SCC(=O)Nc2nc(-c3ccc(F)cc3)cs2)cc1C
    2.12, -1.16
CCn1c(SC(C)C(=O)O)nc2sc3c(c2c1=O)CCC3 (centres undefined)
    8.7*, 0.96*
Cc1cc(C)c(NC(=S)N(C)C)cc1C
    0.39, 1.79
CC1CCCCN1S(=O)(=O)c1ccc(C(=O)N2CCOCC2)cc1 (centres undefined)
    0.1, -0.45
O=C(NCc1cccc(Cl)c1)C1CCC(=O)N(C2CC2)C1 (centres undefined)
    0.11, 0.57
COC(=O)c1[nH]c2cc(OC)ccc2c1N
    0.03, 0.95
Cc1c(OCC(N)=O)ccc2c(-c3ccccc3)cc(=O)oc12
    0.56, -0.77
CC(C)CCN(CC(=O)NC1CCCC1)C(=O)C(=O)Nc1ccc2c(c1)OCCO2
    0.11, 2.36
COc1cccc(OC)c1C(=O)Nc1nc2ccc(S(C)(=O)=O)cc2s1
    0.67, -0.04
COc1ccc(-c2cn(CC3CCCCC3)nn2)cc1
    0.77, -0.28
Cc1cc(Br)cc(Br)c1OCC(=O)NNC(=O)c1ccoc1C
    0.25, 0.1
CCN(CC)/C(=N/O)NC(=O)NS(=O)(=O)c1ccc(C)cc1
    0.01, 1.37
CCc1c(O)nc(SCC(=O)N2CCOCC2)n(-c2ccccc2)c1=O
    0.92, 0.13
COc1cccc(NC(=S)NN2CCN(C)CC2)c1
    0.49, -0.31
COc1c(/C=N/NC(N)=S)c(C)nn1-c1ccccc1
    0.5, -0.58
CCOc1ccc(-c2cc(C(=O)O)c3ccccc3n2)cc1
    0.5, 0.16
CN(C)S(=O)(=O)c1ccc(Cl)c(C(=O)NCc2ccco2)c1
    0.13, -0.52
CCCn1c(SCC(=O)c2cc(OC)ccc2OC)nnc1C(C)C
    1.61, -2.67
CCn1c(=O)n(CC)c2cc(S(=O)(=O)Nc3c(C)cccc3C)ccc21
    0.12, 1.61
COc1ccc(NC(=O)Nc2ccc(C(C)C)cc2)cc1
    0.69, 0.32
CN(C)S(=O)(=O)NCC1CCCN(Cc2ccc(-c3ccccc3)cc2)C1 (centres undefined)
    2.11, -0.06
Clc1cccc(CNCCCSc2ncccn2)c1
    1.42, 1.86
COc1ccccc1/C=C/C=N/NC(=O)CN1CCN(Cc2ccccc2)CC1
    1.09, 0.27
Cc1ccnc(NC(=O)CCC(=O)N(CC(=O)NC2CCCCC2)Cc2ccccc2)c1
    0.99, -0.27
CCOc1cc(C2NC(=O)NC(C)=C2C(=O)OCC2CCCCC2)ccc1O (centres undefined)
    1.03, 0.13
CCC(CO)Nc1nc(CN2CCCCC2)nc2scc(-c3ccccc3)c12 (centres undefined)
    0.99, 2.12
O=C(O)Cc1ccc(C(=O)c2ccccc2)s1
    0.41, -1.46
COCC(C)n1c(SCC(=O)N2CCCCC2)nc2ccccc2c1=O (centres undefined)
    0.41, -2.24
C/C(O)=C(\C#N)c1nnc2n1CCCCC2
    0.19, -0.05

# Three entries out of the list above, sorted by the value under KCNQ2 pot baseline, falling:
compound	KCNQ2 pot baseline
CCC(CO)Nc1nc(CN2CCCCC2)nc2scc(-c3ccccc3)c12 (centres undefined)	2.12
Cc1ccnc(NC(=O)CCC(=O)N(CC(=O)NC2CCCCC2)Cc2ccccc2)c1	-0.27
CN(C)S(=O)(=O)c1ccc(Cl)c(C(=O)NCc2ccco2)c1	-0.52

# Going on with the list.
# Order of results – KCNQ2 pot, KCNQ2 pot baseline
CC(C)CC1NC(=O)N(CCCCN2C(=O)c3ccccc3C2=O)C1=O (centres undefined)
    0.59, 1.36
O=C(O)c1cc(-c2ccc(O)cc2)nc2ccccc12
    0.07, 0.91
CCOC(=O)c1cc2n(c1C)-c1ccccc1C2=O
    1.28, -0.06
O=C(CN1CCC(O)(c2cccc(F)c2)CC1)NCCc1c[nH]c2ccccc12
    1.2, -1.86
O=c1cccc(-c2ccccc2)[nH]1
    0.64, 0.44
CC1=C(C(=O)OCc2ccccc2)C(c2cccc([N+](=O)[O-])c2)NC(=O)N1CCCCCC(=O)O (centres undefined)
    0.01, 1.07
Cc1ccc(N(C(=O)CNC(=O)c2ccco2)C(C(=O)NC2CCCC2)c2cccnc2)cc1 (centres undefined)
    1.6, -1.11
CN(C)CCO[C@@H](c1ccc(Cl)cc1)c1ccccn1
    0.06, -0.46
Cc1cc2ccccc2c(=O)n1CC(=O)NCC(=O)N1CCCC1
    0.07, -0.79
CC(C)C(=O)Nc1ccnc(-c2cccnc2)n1
    0.48, 0.41
COc1ccc(-c2nnc(SCC(=O)N3CCCC3)o2)cc1OC
    0.78, 1.1
Cc1ccc(NC(=O)CCNS(=O)(=O)c2ccccc2F)cc1S(=O)(=O)N1CCOCC1
    0.38, -0.73
O=C(CSc1nc2ccccc2s1)NC1CCS(=O)(=O)C1 (centres undefined)
    2.44, -1.37
O=P(CCO)(c1ccccc1)c1ccccc1
    0.12, 0.26
CN1CCN(Cc2nc3cc(NC(=O)COc4ccc([N+](=O)[O-])cc4)ccc3n2C)CC1
    1.3, 1.95
O=[N+]([O-])c1ccc2c(c1)Nc1nc3ccccc3nc1N2
    0.85, 0.36
O=C1CCCN1CCCNC(=S)Nc1ccc(Cl)cc1Cl
    2.46, 0.45
CCC[C@@H](OS(N)(=O)=O)[C@@H](Cc1ccccc1)C(=O)OCC
    0.88, -1.25
CCN(CCNC(=O)c1ccc2nc(-c3ccccc3NC(C)=O)c(=O)[nH]c2c1)c1ccccc1
    2.57, -1.54
COc1ccc2nc(SCC(=O)N3CCCCCC3)c(C#N)cc2c1
    0.01, -0.46
CCOC(=O)c1ccc(N2C(=O)c3n[nH]c(C)c3C2c2cccnc2)cc1 (centres undefined)
    1.36, 1.01
O=C(/C=C/c1ccccc1)NCC(=O)N/N=C/c1ccccc1[N+](=O)[O-]
    0.67, 0.16
O=C(O)CCc1ccc(-c2cccs2)n1NC(=O)c1cccs1
    1.24, 1.92
COc1ccc(OC)c(/C=C2/Sc3ccccc3C2=O)c1
    0.63, -0.29
O=c1[nH]c2ccccc2n1Cc1ccc(F)cc1
    1.59, -1.6
Cc1ccc2cc(CCNC(=O)CC(C)C)c(=O)[nH]c2c1
    0.45, -0.07
CN(CCO)CC(O)Cn1cnc2c1c(=O)n(C)c(=O)n2C (centres undefined) (tested in a mixture with another compound)
    0.15, -0.25
CCN(C(=O)Cc1c(C(=O)O)[nH]c2ccccc12)c1cc(OC)ccc1OC
    0.67, 1.02
CC(C)(O)CNC(=O)Nc1ccc(Cl)c(Cl)c1
    1.43, 0.49
CC1(C)CC(=O)C2=C(C1)Nc1ccccc1NC2c1cccs1 (centres undefined)
    0.45, -2.46

# Continued.
SMILES,KCNQ2 pot,KCNQ2 pot baseline
CCOc1cccc(/C(O)=C2/C(=O)C(=O)N(CCN3CCOCC3)C2c2ccncc2)c1 (centres undefined),0.03,0.16
Cn1c(SCc2c(F)cccc2Cl)nc2c(c1=O)SCC2,0.36,-1.35
CC1=NN(c2ccc(Cl)c(C(=O)O)c2)C(=O)/C1=C\c1ccc(-c2ccc(C(=O)O)cc2)o1,1.6,-0.27
CCC1CCCCN1C(=O)CSc1nnc(CNC(=O)c2ccco2)o1 (centres undefined),0.74,-0.29
O=C(N/N=C/C(c1ccccc1)c1ccccc1)c1ccccc1F,0.09,-0.6
Cc1cc(C)c2nc(SC(C)C#N)cc(C)c2c1 (centres undefined),5.57*,0.72*
CCc1cccc(CC)c1NC(=S)Nc1ccc2cn[nH]c2c1,0.02,1.96
COc1ccc(COC(=O)c2n[nH]c3ccccc23)cc1F,0.03,-0.45
CC(C)(NC(=O)N1CCOCC1)c1cccc(C(C)(C)NC(=O)N2CCOCC2)c1,2.23,-1.04
C=CCNC(=O)c1c(Cl)cnn1-c1ccc(C)cc1,0.59,-1.44

# Ordered by molar mass (lowest first): some entries from above
SMILES,KCNQ2 pot,KCNQ2 pot baseline
C=CCNC(=O)c1c(Cl)cnn1-c1ccc(C)cc1,0.59,-1.44
COc1ccc(COC(=O)c2n[nH]c3ccccc23)cc1F,0.03,-0.45
Cn1c(SCc2c(F)cccc2Cl)nc2c(c1=O)SCC2,0.36,-1.35

# The list continues:
SMILES,KCNQ2 pot,KCNQ2 pot baseline
COc1ccc2c(c1)N(C)/C(=C1/SC(=NCc3ccccc3)N(c3ccccc3)C1=O)S2,0.01,-0.4
CCOC(=O)C1CCN(C(=O)CN(C)S(=O)(=O)c2ccc3c(c2)c(=O)n(C)c(=O)n3C)CC1,0.37,-0.09
CC(C)(Cc1cc(CC(C)(C)C(=O)O)cc(C(C)(C)C)c1)C(=O)O,1.77,-0.03
O=C1CN(C(=O)COC(=O)c2oc3ccccc3c2COc2ccccc2)c2ccccc2N1,0.22,0.01
COC(=O)c1cn(CC(=O)Nc2ccc(OC)cc2)c2ccccc12,0.44,0.05
NS(=O)(=O)c1ccc(CCNC(=O)CSc2ccc([N+](=O)[O-])cc2)cc1,0.46,1.01
CC(C)Cn1c(-c2cccs2)nc2ccccc21,0.96,-0.99
CCCNC(=O)C(=O)NCc1ccccn1,1.07,0.33
COc1ccc(/C=N/Nc2nnc(Cc3ccccc3)c(=O)[nH]2)cc1OC,0.83,2.17
COc1ccc(C(CC(=O)N2CCN(c3ccccc3)CC2)c2c(O)cc(OC)cc2OC)cc1 (centres undefined),1.22,1.23
COc1ccccc1-n1c(SCC(=O)NC2CCCC2)nc2cccnc21,0.37,0.13
COc1ccc(S(=O)(=O)N2CCCC(C(=O)NCc3ccc4c(c3)OCO4)C2)cc1 (centres undefined),0.69,-0.46
O=C(NC1CC1)C1=C[C@@H](C2CCCCC2)C[C@@H](OCCCCO)O1,0.75,-0.07
COc1ccc(C2=NN(C(=O)c3cccs3)C(c3ccccc3OC)C2)cc1OC (centres undefined),0.5,0.05
O=C(c1cccnc1Nc1ccccc1F)N1CCOCC1,0.27,-1.24
CCOC(=O)C1CCCN(C(=O)c2csc(-c3ccc4c(c3)CCO4)n2)C1 (centres undefined),1.97,-0.01
Cc1ccc(OCCC(=O)OCC(=O)NC(=O)NC2CCCC2)cc1,0.05,-0.11
Cc1cccc(C)c1-n1c(C)cc(/C=N/NC(=O)CSc2ncccn2)c1C,0.42,-0.37
CNC(=O)COC(=O)c1cc2c(s1)CCCC2,1.22,-0.51
CCOc1ccc(NC(=O)CN(C)C(=O)c2ccc(-c3ccc(C(C)=O)cc3)o2)cc1OCC,0.85,-0.7
COC(=O)CN(c1ccc(F)cc1)S(=O)(=O)c1ccccc1,0.81,-2.01
CC1(C)CC(=O)/C(=C(\O)CCCN2C(=O)c3ccccc3C2=O)C(=NCC(=O)O)C1,1.5,-1.81
COc1cc(CNC(C)(C)CO)ccc1OCC(=O)Nc1ccc(Br)cc1,1.22,0.69
CC(C)CCC1(CCNC(C)c2cccs2)CCOC(C)(C)C1 (centres undefined),0.09,-0.17
O=C(NCc1ccc(Cl)cc1)c1ccc(COCC(F)(F)F)o1,1.65,-1.95
COC(=O)Cn1c2ccccc2c2nc(=O)cc(C)n21,0.78,0.91
COc1cc(/C=C2/C(=N)N3C(=NC2=O)SN=C3S(=O)(=O)C(C)C)ccc1OS(=O)(=O)c1ccccc1,1.67,-2.12
Cc1cccc(C(=O)NCC(=O)NCC(c2ccco2)N2CCCCC2)c1 (centres undefined),0.69,-0.04
COc1ccc([N+](=O)[O-])cc1NC(=O)COC(=O)C1CC1,0.07,-1.12
C=CCn1c(=O)c2ccccc2n2c(SCC(N)=O)nnc12,0.99,0.12
CC(=O)Nc1cccc(NC(=O)C(=O)NCC(c2ccco2)N2CCc3ccccc3C2)c1 (centres undefined),1.77,-1.14
Cc1ncc(CN2CCN(Cc3ccccc3)C(CCO)C2)s1 (centres undefined),0.04,-0.79
COCCNC(=O)CC(NS(=O)(=O)c1ccc(NC(C)=O)cc1)C(C)C (centres undefined),0.02,-0.84
COc1cc(C(=O)N2CCN(c3ccc(C)cc3C)CC2)cc(OC)c1OC,0.49,0.02
CC(Nc1nc(N2CCNCC2)nc2ccccc12)c1ccccc1 (centres undefined),1.23,0.08
CN(C)S(=O)(=O)N1CCCC(C(=O)c2ccc(-c3ccccc3)cc2)C1 (centres undefined),0.43,0.02
Nc1cc(N)nc(SCc2cc(=O)oc3cc4c(cc23)CCC4)n1,0.76,-0.47
Cc1ccn2cc(CC(=O)O)nc2c1,0.5,0.64
Fc1ccc(CNCC2CCCO2)cc1 (centres undefined),0.03,0.97
CCC(C)[C@H](NC(=O)NCCCc1ccccc1)C(=O)OC (some centres undefined),0.13,-1.75

# Given as labelled records: four of the compounds above
> COc1cc(C(=O)N2CCN(c3ccc(C)cc3C)CC2)cc(OC)c1OC
  KCNQ2 pot: 0.49
  KCNQ2 pot baseline: 0.02

> CC(Nc1nc(N2CCNCC2)nc2ccccc12)c1ccccc1 (centres undefined)
  KCNQ2 pot: 1.23
  KCNQ2 pot baseline: 0.08

> CN(C)S(=O)(=O)N1CCCC(C(=O)c2ccc(-c3ccccc3)cc2)C1 (centres undefined)
  KCNQ2 pot: 0.43
  KCNQ2 pot baseline: 0.02

> Nc1cc(N)nc(SCc2cc(=O)oc3cc4c(cc23)CCC4)n1
  KCNQ2 pot: 0.76
  KCNQ2 pot baseline: -0.47

# The results go on:
SMILES,KCNQ2 pot,KCNQ2 pot baseline
C=CCC(=O)NC(C)c1cnn(-c2ccccc2C)c1C (centres undefined),0.82,0.1
Cc1cc2nnc(SCC(=O)N3CCN(c4ccccc4)CC3)n2c(N)n1,0.71,-1.1
CCOc1cc(C2C(C(=O)c3ccc(C)cc3)=C(C(=O)OC)Nc3nnnn32)ccc1O (centres undefined),0.32,-0.04
CCCN(Cc1ccccc1)C(=S)Nc1ccc(SC(F)F)cc1,3.26,-0.82
CN1C(=O)NC2C1N(S(C)(=O)=O)CCN2S(C)(=O)=O (centres undefined),0.87,-0.42
COc1ccc(C(=O)CC(CC(=O)c2ccc(OC)cc2)C(=O)O)cc1,1.61,-0.65

# The list is partial; count on the stated rates, not on these rows.
